# Assay outcomes (PubChem BioAssay)
# Autofluor counter = flagged as autofluorescent in microsphere protease counterscreen. AID 624483. compound autofluorescence counterscreen, microsphere flow cytometry; active compounds read high. hit rate 3.1% among 360,000. fluorescence intensity (test concentration not listed);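 active = at least 3 SD above the mean of all compounds, about 16000 in these data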;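 also: 100 nL of 1 mM stock went into each well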
# BJeLR viability = BJeLR cell viability loss | BJeLR (HRASV12) viability, CellTiter-Glo ATP luminescence, 48 h; reference of the scale not given here | inhibition, % (no concentration beside the values) | hit rate 0.17% among 300,000;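 active = replicate mean above 50%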;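 also: 50 nL library stock added to about 25 µL; numbers are from one replicate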
# PrP UTR inh = inhibition of PrP 5' UTR reporter expression; cell-based PrP 5' UTR mRNA reporter, plate reader; inhibition, % (concentration not given with the values); hit rate 0.35% among 340,000;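 active = every replicate at 50% or more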;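 also: 0 = median of the neutral control wells; tested in H4 reporter cells; numbers are from one replicate; inactives centre near -14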
# Sa RN4220 lethal = kills Staphylococcus aureus RN4220; S. aureus RN4220 growth, OD600, 16 h; inhibition, % (no concentration beside the values); hit rate 0.33% among 330,000; AID 1259311;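 active = z-score of -3 or lower and OD600 up to 0.18 on both plates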;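 also: plate controls were untreated cells for no effect and reference antibiotic for full effect; stock transfer was 100 nL into about 80 µL; one replicate is shown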
# Mtb hypoxia inh = reduces hypoxia-regulated biosensor signal in M. tuberculosis; M. tuberculosis hypoxia-regulated fluorescent reporter, fluorescence; fluorescence inhibition, % (concentration not given with the values); hit rate 0.1% among 300,000; AID 1159583;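 active = 35 to 45% if threefold the growth effect, above 45% if 1.5-fold the growth effect; inactive = the rest, general growth blockers included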;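 also: wells of about 50 µL received 100 nL stock; 0% = vehicle wells and 100% = reference inhibitor wells; whole bacteria with a GFP reporter of the hypoxia response; strong numbers were not always called active; many hits fall short of the cut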
# ugtP null kill = growth inhibition of S. aureus ugtP deletion strain. hit rate 0.54% among 330,000. S. aureus RN4220 ugtP deletion, OD600 growth, 16 h; some inactives read as strong as hits. AID 1259309. growth inhibition, % (concentration not given with the values);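 active = z-score under -3 and OD600 up to 0.15 on both plates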;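 also: plate controls were untreated wells for no effect and antibiotic for full effect; wells of about 80 µL received 100 nL stock; the first replicate is given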
# Mtb hypoxia inh growth = further read-out of Mtb hypoxia inh, marked with its call; growth inhibition, %; measured here: M. tuberculosis growth (absorbance);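 0% = vehicle and 100% = reference antibiotic; read after six days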
# * hit, by the source's call; / = no result given. Outcome played no part in choosing rows (roughly 4% active in at least one column).
SMILES,Autofluor counter,BJeLR viability,PrP UTR inh,Sa RN4220 lethal,Mtb hypoxia inh,Mtb hypoxia inh growth,ugtP null kill
Cc1cc(NC(=O)c2cc(-c3ccco3)on2)nn1Cc1ccc(Cl)cc1,8286,0.7,/,-3.4,8.0,3.2,-15.0
Oc1cc(NCc2ccc(Cl)cc2)cc2cccnc12,3310,/,-25.2,5.6,2.0,10.9,-0.6
COC(CNC(=O)c1ccc(N2CCC3(CC2)OCCO3)c([N+](=O)[O-])c1)OC,2253,22.9,-7.6,-7.5,-3.6,2.4,-4.2
CCN(CC)CCN(C(=O)/C=C/c1cccs1)c1nc2ccc(Cl)cc2s1,3948,0.9,-3.7,-5.0,-10.1,-5.1,-17.8
CC(C)NCC(O)Cn1c2c(c3ccccc31)CCc1c-2cnn1-c1ccccc1 (stereo not given),2876,-2.3,-32.0,-6.5,/,/,-25.4
COc1ccc(C(=O)NCc2ccccc2OC)c(OC)c1,20943*,-10.3,-19.5,2.4,4.2,9.4,1.8
O=C(NCc1cccnc1)c1nc(-c2cccs2)no1,2630,-8.9,2.9,-0.6,-1.1,-0.9,9.0
COc1ccccc1-n1cnnc1SCC(=O)c1cc(C)n(Cc2cccs2)c1C,17083*,1.8,-19.4,1.4,0.9,10.2,-10.2
Cc1ccc(NC(=O)CCn2c(=S)oc3ccccc32)cc1,2562,3.2,-12.3,3.7,12.0,-1.0,-1.3
COc1ccc(N(CC(=O)NCc2ccccc2OC)S(=O)(=O)c2ccc(C)cc2)cc1Cl,5728,11.5,-22.3,-1.7,7.8,13.8,-1.2
O=C(NO)c1ccccc1C(F)(F)F,4246,-0.4,-10.4,3.2,1.5,-3.9,6.3
Cc1ccc(S(=O)(=O)NNC(=O)C2CCN(S(=O)(=O)c3ccc(C)cc3)CC2)cc1,3365,-15.4,-14.1,-5.2,-3.6,3.2,-6.7
COc1ccccc1OP(=O)(Nc1cccnc1)Oc1ccccc1OC,2206,20.8,-30.7,1.5,-4.7,1.9,-9.5
CC(C)N1CCN(Cc2cc(F)ccc2-n2cccn2)CC1CCO (stereo not given),4508,1.8,-57.8,6.6,9.9,2.0,12.9
CC(=O)Nc1ccc(NC(=O)CC2Nc3cccc4cccc(c34)NC2=O)cc1 (stereo not given),/,-10.6,-17.7,16.6,9.6,3.8,14.1
COC(=O)CN1C(=O)[C@@H]2[C@H](C1=O)[C@@H]1CC(C(=O)OC)=C[C@@H](C(=O)OC)[C@@H]3C1=C(C(=O)[C@]3(C)NC(=O)c1ccccc1)[C@@H]2C,2907,9.0,-23.7,/,/,/,/
Cc1nc2c(Cl)cc(Cl)cc2[nH]1,2514,0.0,-21.8,5.4,/,/,-6.2
COc1cccc(CC(=O)NC2CCCN(Cc3ccccc3F)C2)c1 (stereo not given),4253,-2.7,-5.0,2.1,-9.6,-4.0,4.2
CCCC(=O)Nc1nc(C)c(C(C)=O)s1,4107,9.9,-28.4,2.2,-3.5,-11.1,-5.0
OC1CCN(Cc2cccc3ccccc23)CC1,6264,1.0,-28.0,4.5,10.0,8.8,13.1
COc1ccccc1CNC(=O)c1sccc1C,3868,-5.6,-32.2,10.3,-0.4,7.6,3.5
CC1Cc2ccccc2N1C(=O)Cn1nc(C(=O)O)c2ccccc2c1=O (stereo not given),3897,-1.5,-30.8,-13.7,12.8,3.3,-5.6
O=C(CCc1ccccc1)N=C1SC2CS(=O)(=O)CC2N1c1ccc(F)cc1 (stereo not given),5135,-1.1,-11.9,3.8,4.3,11.3,1.0
Cc1ccccc1CC(=O)NCc1cccnc1,3677,-3.5,-7.3,3.5,4.4,-4.9,14.3
O=C(C1CCCN1S(=O)(=O)c1ccc(Cl)cc1)N1CCOCC1 (stereo not given),4004,2.1,-15.5,3.5,6.3,7.2,9.8

# Record cards (already shown):
# O=C(NO)c1ccccc1C(F)(F)F in the list: Autofluor counter: 4246; BJeLR viability: -0.4; PrP UTR inh: -10.4; Sa RN4220 lethal: 3.2; Mtb hypoxia inh: 1.5; Mtb hypoxia inh growth: -3.9; ugtP null kill: 6.3
# Cc1ccc(NC(=O)CCn2c(=S)oc3ccccc32)cc1 in the list: Autofluor counter: 2562; BJeLR viability: 3.2; PrP UTR inh: -12.3; Sa RN4220 lethal: 3.7; Mtb hypoxia inh: 12.0; Mtb hypoxia inh growth: -1.0; ugtP null kill: -1.3

# Going on with the list:
SMILES,Autofluor counter,BJeLR viability,PrP UTR inh,Sa RN4220 lethal,Mtb hypoxia inh,Mtb hypoxia inh growth,ugtP null kill
N#Cc1ccc(NC(=O)CCNC(=O)c2ccco2)cc1Cl,3739,-5.6,5.9,1.0,-3.2,4.6,0.8
COc1cccc(CN2CCSCC2)c1,10855,-12.5,-24.8,6.7,5.9,4.2,-0.6
CCCn1c(N)c(CC)c(=O)[nH]c1=O,4259,/,-11.7,-1.3,-3.0,7.2,-9.6
Cc1cccn2c(CN3CCSCC3)c(C(=O)N3CCOCC3)nc12,5119,-5.9,-1.7,6.6,-7.8,9.4,3.6
C=CCn1c(SCC(=O)Nc2ccccc2F)nnc1C(C)NC(=O)c1ccccc1F (stereo not given),5745,-9.1,-19.7,7.2,2.8,2.9,-2.5
Cn1cc(CN2CCN(CCc3ccccc3)C(CCO)C2)cn1 (stereo not given),2759,-3.9,-20.0,4.8,16.6,3.2,-1.8
CC(=O)N1CCc2cc(S(=O)(=O)CCC(=O)Nc3cc(C)cc(C)c3)ccc21,4462,0.0,7.3,5.0,-0.6,-7.4,10.4
O=C(Nc1nc2ccc(S(=O)(=O)N3CCCCC3)cc2s1)c1cccnc1,21943*,-2.5,-17.3,0.0,-3.4,1.2,-10.7
CS(=O)(=O)N(Cc1ccccc1)c1ccc(C(=O)N2CCc3ccccc3C2)cc1,4089,1.7,2.8,25.4,18.0,13.9,-4.3
CCOC(=O)C1(CCOC)CCN(Cc2ccc(C3CCCCO3)s2)CC1 (stereo not given),4324,2.4,9.2,2.7,-5.6,0.7,-2.5
CCOC(=O)c1c(NC(=O)COC(=O)Cn2c(C)nc3ccccc32)sc2c1CCCC2,2470,10.8,2.1,2.2,14.3,3.0,4.4
Cc1cc(SCc2ccc(C(F)(F)F)cc2)nc(=O)[nH]1,5537,16.0,-0.5,0.4,-1.8,4.4,7.0
CCOC(=O)c1c(N)sc(C(=O)N(C)C)c1C,4871,-7.1,9.5,0.7,/,/,4.5
O=C(CSc1nnc(CNc2ccc(F)cc2)n1-c1ccccc1)N1CCOCC1,3112,-2.6,-4.4,2.9,2.4,6.1,-1.2
CCOc1ncccc1C(=O)N1CCCSC1=Nc1ccccc1OC,4155,-4.7,-14.2,0.7,3.5,2.0,0.4
CC1CC2C3CCC4=CC(=O)C=CC4(C)[C@@]3(Cl)C(O)CC2(C)C1(O)C(=O)CO (stereo not given in full),5855,0.9,-9.7,3.3,10.7,4.9,-3.2
CCOc1ccc(C(=O)c2cc3ccc(O)cc3oc2=O)cc1,4583,-2.1,-32.4,4.4,-3.1,9.4,10.7
C=CCOc1ccc(CNC(C)(C)CO)cc1OC,2621,-3.3,-11.8,-16.3,4.4,-3.7,-5.7
COc1ccc(-n2nc(C(=O)NCC(=O)NCCCN3CCOCC3)c3ccccc3c2=O)c(OC)c1,6523,8.9,-10.7,0.3,2.6,3.4,5.4
Cc1cc(C)n2nc(C(=O)NN=Cc3ccccc3Cl)nc2n1,/,/,/,9.6,-2.9,3.4,15.0
CC(C)NC(=O)/C(=C/c1cn(-c2ccccc2)nc1-c1cccc([N+](=O)[O-])c1)NC(=O)c1ccccc1,2434,0.7,-10.6,3.8,-6.8,8.3,-0.1
CC(C)CC(NS(=O)(=O)c1ccc2[nH]c(=O)c(=O)[nH]c2c1)C(=O)O (stereo not given),4490,-3.5,-22.7,4.5,5.1,6.4,1.5
CCC(C)c1ccccc1N1CC(C(=O)Nc2cccc(S(=O)(=O)N3CCOCC3)c2)CC1=O (stereo not given),5763,0.7,-22.6,0.1,-1.7,-10.0,0.0
O=C1NCCCN1Cc1ccc(F)cc1,10676,-9.4,-10.7,4.8,6.8,9.0,5.5
Cc1ccc(NC(=O)N2CC2)cc1NC(=O)N1CC1,3972,/,-11.9,4.7,16.0,8.9,4.3

# Some entries already given, showing only ugtP null kill and Sa RN4220 lethal:
Molecule	ugtP null kill	Sa RN4220 lethal
CCCn1c(N)c(CC)c(=O)[nH]c1=O	-9.6	-1.3
Cc1cccn2c(CN3CCSCC3)c(C(=O)N3CCOCC3)nc12	3.6	6.6
C=CCn1c(SCC(=O)Nc2ccccc2F)nnc1C(C)NC(=O)c1ccccc1F (stereo not given)	-2.5	7.2
Cn1cc(CN2CCN(CCc3ccccc3)C(CCO)C2)cn1 (stereo not given)	-1.8	4.8

# Later entries.
SMILES,Autofluor counter,BJeLR viability,PrP UTR inh,Sa RN4220 lethal,Mtb hypoxia inh,Mtb hypoxia inh growth,ugtP null kill
Cc1cccc(NC(=O)Cc2cccs2)n1,6784,-3.2,-16.6,5.7,9.3,6.5,17.6
CC(C#N)(NC(=O)CN1CCN(S(=O)(=O)c2ccccc2C#N)CC1)C1CC1 (stereo not given),3729,/,-7.9,1.0,0.5,14.1,-1.5
N=C(N)SCP(=O)(c1ccccc1)c1ccccc1,/,-9.6,63.6*,-1.0,-2.1,-1.7,13.9
COc1cccc(CC(=O)Nc2ccc(N3CCOCC3)c(S(=O)(=O)Nc3ccccc3OC)c2)c1,3161,/,-0.1,-1.6,-5.9,-7.4,-8.0
CCC(C(=O)N1C[C@H]2C[C@@H](C1)c1cccc(=O)n1C2)c1ccccc1 (stereo not given in full),4250,1.9,-8.4,3.4,/,/,-5.0
Cc1nn(-c2ccccc2)c2nc(=O)n(-c3ccccc3)cc12,3341,3.7,-14.1,0.6,17.7,12.7,4.7
COc1ccccc1NS(=O)(=O)c1cc(C(=O)N2CCCCCCC2)ccc1C,/,6.5,-7.0,3.2,-2.4,-2.5,-5.0
C=CCn1c(C(C)NC(=O)c2cccc(C)c2)n[nH]c1=S (stereo not given),2466,-3.0,-15.0,1.1,11.4,13.8,-1.6
CCCOc1ccc(C(=O)CCCC(=O)c2ccc(OCCC)cc2)cc1,3063,2.3,-15.0,2.2,-5.7,7.5,-1.9
CCOc1ccc(NC(=O)Cn2cc(C(=O)CC)c3ccccc32)cc1,3663,-7.5,-38.3,1.1,5.7,-4.3,-5.2
N#CC[C@H](Cc1ccccc1)N1CCN(CCc2ccccc2)CCC1=O,5668,-0.6,-9.6,/,/,/,/
O=C(O)C1CCN(C(=O)CSc2nc3ccccc3s2)CC1,3535,8.3,-25.8,3.1,0.2,1.2,2.3
CC(C)OCCCn1c(=O)c2ccccc2n2c(CCC(=O)O)nnc12,3279,0.3,-1.3,3.3,15.8,2.3,2.7
COc1ccccc1Nc1ncc(C(=O)Nc2ccc(OC)c(OC)c2)c2ccccc12,7121,-7.4,-37.3,7.6,9.5,6.1,5.0
Cc1oc(-c2ccccc2)nc1CN1C(=O)C(C)N=C(c2ccccc2F)c2cc(Cl)ccc21 (stereo not given),5898,-1.3,-3.9,24.4,4.5,2.8,31.4
Cc1ccc(NC(=O)c2cnn(-c3ccccc3)c2NC(=O)c2ccco2)cc1,2149,5.2,-18.9,-2.4,/,/,-4.6
CC(=O)Nc1ccc(S(=O)(=O)Nc2ccc3c(c2)OCCO3)cc1Cl,4491,3.4,-7.5,/,/,/,/
Cc1ccc(C)c(OCC(=O)Nc2ccccc2C(=O)N2CCN(C)CC2)c1,6087,-6.6,-9.2,/,/,/,/
CCCCC1COCCS(=O)(=O)N1Cc1cccc(F)c1 (stereo not given),/,/,/,8.3,11.9,10.7,-2.0
CCN(CC)C(=O)c1[nH]cnc1C(=O)N[C@@H](CC(C)C)C(=O)OCc1ccccc1,3003,12.7,-12.4,/,/,/,/
CC(/C=N/n1c(-c2cc(C)[nH]n2)n[nH]c1=S)=C\c1ccco1,4237,-11.1,-19.4,/,/,/,/
CCOc1ccc(/C=C2\SC(=O)N(CCNC(=O)CN3C(=O)NC4(CCCC4)C3=O)C2=O)cc1OC,5797,12.6,-7.8,0.0,-1.7,-11.5,3.9
Cc1nn(C(=O)c2cccnc2)c(C)c1Sc1ccccc1,4274,-1.3,-20.6,6.0,4.1,10.1,-4.9
COc1ccc(CCC(C)N(C)Cc2ccccc2)cc1 (stereo not given),/,-4.5,-28.2,-0.3,9.8,2.0,-0.1
O=C(c1cccs1)c1coc2ccc(O)c(CN(CCO)CCO)c12,21865*,0.3,-26.5,-1.2,-2.1,-2.7,-2.7
